Assay outcomes: PubChem BioAssay, National Center for Advancing Translational Sciences (NCATS)
Sfp PPTase inh: Sfp phosphopantetheinyl transferase inhibition | Q9F4F7 | Biochemical Sfp PPTase activity, qHTS | Potency, µM, inactives show max response, negative = inhibition, most hits filed as inhibitors | 3.5% of 310,000 active | AID 1490; active = well fitted inhibition curve with a large enough effect; inconclusive = small, poorly fitted or top-dose-only effect, or another doubt; inactive = no such curve, though single readings can be large or run the other way;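 also: the enzyme is Sfp with the accession as filed and its product quenches rhodamine fluorescence; 0% = enzyme reaction without inhibitor and -100% = no enzyme wells; top concentration of the series not given in the record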
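Fluorescence-quenching assay: 15 nM Sfp-PPTase preincubated 15 min at room temperature with compound, then 5 uM rhodamine-CoA and 12.5 uM BHQ-2-labelled YbbR peptide added. Fluorescence (ex 525/em 598 nm) read at start and after 30 min; difference gives rate.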
The depositor's hits bear a star; u = inconclusive; & = joins results of further samples. Potency is read from the fitted curve at half-maximal effect.

Sfp PPTase inh	smiles
45µM*	CC(=O)O[C@H]1C(=O)[C@@]2(C)C([C@H](OC(=O)c3ccccc3)[C@]3(O)C[C@H](OC(=O)[C@H](O)[C@@H](NC(=O)c4ccccc4)c4ccccc4)C(C)=C1C3(C)C)[C@]1(OC(C)=O)CO[C@@H]1C[C@@H]2O (stereo partly specified)
13%	CC(C)C[C@H](NC(=O)[C@H](Cc1ccccc1)NC(=O)[C@@H]1CCCN1C(=O)[C@H](CC(=O)O)NC(=O)[C@@H]1CCC(=O)N1)C(=O)N[C@@H](CCCN=C(N)N)C(=O)N[C@@H](Cc1ccccc1)C(N)=O
10%&6%	O=C1C[C@@H](O)[C@@H](O)[C@H]2[C@@H]3C(=O)N(C[C@@H]4CCCO4)C(=O)[C@@H]3CC[C@H]12
-20%	CC12CCC=CC1C(c1cccc([N+](=O)[O-])c1)N(Cc1ccccc1)C2=O (stereo unspecified)
4%	CN1c2ccccc2C(=O)N2CCc3c([nH]c4ccccc34)C21 (stereo unspecified)
11%&20%	COCCOC(=O)C1=C(C)NC(C)=C(C(=O)OC/C=C/c2ccccc2)C1c1cccc([N+](=O)[O-])c1 (stereo unspecified)
21%	O=C(CCCc1ccc(-c2ccccc2F)cc1)Nc1ccc(O)cc1
-5%	Cc1ccc(-c2c(C3C4C=CCCC4(C)C(=O)N3Cc3ccccc3)ccc3ccccc23)cc1 (stereo unspecified)
17%	CCC(C)C(=O)OC1C2CC3=C4CC(=O)OC(c5ccoc5)[C@]4(C)CCC3[C@@](C)(C2=O)C(CC(=O)OC)C1(C)C (stereo partly specified)
-9%	CC(O)C(N)C(=O)O (stereo unspecified)
8%	CC(=O)OCC(=O)[C@@]1(O)CC[C@@H]2[C@H]3CCC4=CC(=O)CC[C@]4(C)[C@]3(F)[C@@H](O)C[C@@]21C
-13%	O=C(O)C1CC=CC2CCN(C3CC3)C(=O)C21 (stereo unspecified)
-2%	COC(=O)C1=C(C(=O)OC)[C@@H]2N(C)c3ccccc3[C@@]23C[C@@H](C(=O)OC)N(S(=O)(=O)c2c(C)noc2C)C3=N1
-8%	COC(=O)C1=C(C(=O)OC)[C@@H]2N(Cc3ccccc3)c3ccccc3[C@@]23C[C@@H](C(=O)OC)N(C(=O)NCc2ccccc2)C3=C1
22%	CCOC(=O)CCN1C(=O)[C@H]2[C@H]3[C@H](O)[C@H](O)C/C(=N/OCC(C)C)[C@H]3CC[C@@H]2C1=O
-21%	C[C@@H]1C(=O)N(S(=O)(=O)c2ccc([N+](=O)[O-])cc2)[C@H]1c1ccccc1
24%	COCCN(CCOC)c1nc(C)nc2c1nc(-c1ccccc1)n2CCCN1CCCCC1C (stereo unspecified)
7%	C=C1CC/C=C(\C)CC[C@@H]2[C@@H]1CC2(C)C
23%	CC[C@H](C)[C@@H]1O[C@]2(CC[C@@H]1C)C[C@H]1C[C@H](CC=C(C)[C@@H](O[C@@H]3C[C@H](OC)[C@H](O[C@@H]4C[C@H](OC)[C@H](O)[C@H](C)O4)[C@H](C)O3)[C@@H](C)C=CC=C3CO[C@@H]4[C@@H](O)C(C)=C[C@@H](C(=O)O1)[C@]34O)O2
5%	C=CC[C@@H]1C=C[C@H](Oc2ccc(C)cc2)[C@H](COC(=O)NCc2cccc3ccccc23)O1
-15%	COc1ccc(-c2ccc(C)cc2)cc1C1C2C=CCCC2(C)C(=O)N1Cc1ccccc1 (stereo unspecified)
13%	COc1ccc(COC(=O)N/N=C2/C[C@@H](O)[C@@H](O)[C@@H]3[C@H]4C(=O)N(c5ccc(F)cc5F)C(=O)[C@@H]4CC[C@H]23)cc1
8%	CCC(C)C(=O)O[C@H]1C[C@@H](C)C=C2C=C[C@H](C)[C@H](CC[C@@H]3C[C@@H](O)CC(=O)O3)C21 (stereo partly specified)
-23%	NCCCC[C@H](NC(=O)[C@@H]1CCCN1C(=O)[C@@H](N)CCCN=C(N)N)C(=O)N1CCC[C@H]1C(=O)N[C@@H](CCC(N)=O)C(=O)N[C@@H](CCC(N)=O)C(=O)N[C@@H](Cc1ccccc1)C(=O)O
5%	CCCCCC/C=C/c1ccc(C2C3C=CCC(C)C3C(=O)N2Cc2ccccc2)c(F)c1 (stereo unspecified)
-9%	CC(C)(C(O)c1ccc([N+](=O)[O-])cc1)[N+](=O)[O-] (stereo unspecified)
-7%	COC(=O)C/C=C\[C@@H](C)[C@@H](/C=N\O[C@@H](C)c1cn([C@H]2COC[C@H]2O)nn1)NS(=O)(=O)c1ccc(C)cc1
4%	C=C(NC(=O)C(=C)NC(=O)c1csc(C2=NC3c4csc(n4)C4NC(=O)c5csc(n5)C(C(C)(O)C(C)O)NC(=O)C5CSC(=N5)C(=CC)NC(=O)C(C(C)O)NC(=O)c5csc(n5)C3(CC2)NC(=O)C(C)NC(=O)C(=C)NC(=O)C(C)NC(=O)C(C(C)CC)NC2C=Cc3c(C(C)O)cc(nc3C2O)C(=O)OC4C)n1)C(N)=O (stereo unspecified)
16%	COc1ccc2c(c1)C(=O)[C@@H](OC(=O)N[C@H]1CCCc3ccccc31)[C@H](c1ccc(OC)c(Br)c1)O2
13%	OC[C@H]1NC[C@H](O)[C@@H](O)[C@@H]1O
-11%	O=c1cc(-c2ccc(O)cc2)oc2c(-c3cc(-c4cc(=O)c5c(O)cc(O)cc5o4)ccc3O)c(O)ccc12
17%	CC(C)(C)OC(=O)NCCCCC1=CC2=CC(=O)C(C)(OC(=O)CCc3ccccc3)C(=O)C2=CO1 (stereo unspecified)
10%	CO/N=C1/[C@H]2O[C@@H]2[C@@H](O)[C@H]2[C@H]1CCn1c(=O)n(-c3ccccc3)c(=O)n12
0%	O=c1[nH]c2cc([N+](=O)[O-])cc([N+](=O)[O-])c2[nH]c1=O
17%	CN(C)CCCOC1C(C(O)CO)OC2OC(C)(C)O[C@@H]21 (stereo partly specified)
-3%	CCCc1nc(C(C)(C)O)c(C(=O)OCc2oc(=O)oc2C)n1Cc1ccc(-c2ccccc2-c2nn[nH]n2)cc1
25µM*	CC1=C(C(N)=O)N2C(=O)[C@@H](NC(=O)Cc3ccccc3)C2SC1 (stereo partly specified)
21%	CCCNC(=O)OC[C@@H]1O[C@H](CCON=C(C)C)C=C[C@@H]1Oc1ccc(OC)cc1
4%	COc1cccc(NC(=O)/C=C\c2ccc(Cl)cc2)c1
-18%	CC(=O)OCC1OC(C#CCC2CCCCC2)C=CC1OC(C)=O (stereo unspecified)
u	NC1(C(=O)O)C[C@@H](C(=O)O)[C@H](C(=O)O)C1
10%	Cc1ccc(S(=O)(=O)N(C)c2cccc3cccnc23)cc1
7%	C[C@H](NCCc1ccc(O)cc1)[C@@H](O)c1ccc(O)cc1
-9%	COc1ccc2c(c1)C(=O)[C@@H](OC(=O)NCCOc1ccccc1)[C@H](c1ccc(OC)c(Br)c1)O2
12%	COc1ccc(-c2nc3c(c4c2CC(C)OC4)CN(CCC(C)C)CC3)cc1 (stereo unspecified)
-5%	COC(=O)NC(CC(C)=O)c1cccc(C)c1 (stereo unspecified)
-6%	COc1ccc(C2=Nn3c(nnc3-c3ccc(OC)c(OC)c3)SC2)cc1
-28%	CC(C)(C)OC(=O)NC(NC(=O)OCC1c2ccccc2-c2ccccc21)C(=O)O (stereo unspecified)
-8%	CSc1ccccc1N1CCN(CCCCCC(=O)NC2CCCc3ccccc32)CC1 (stereo unspecified)
12%	CC1(C)[C@@H](OC(=O)CCC(=O)O)CC[C@@]2(C)[C@H]1CC[C@@]1(C)[C@H]2C(=O)C=C2[C@H]3C[C@](C)(C(=O)O)CC[C@]3(C)CC[C@@]21C

Further compounds.
Sfp PPTase inh	smiles
6%	c1ccc(COC[C@H]2CO2)cc1
14%	CCOC(=O)C1CCN(CC(=O)Nc2c(C(=O)OC)[nH]c3ccccc23)CC1
23%&5%	CO[C@H]1COC(=O)C/C=C\[C@@H](C)COC(=O)[C@@H](CCSC)NC(=O)C/C=C\[C@@H]1C
-9%	C#CCCCO/N=C1/C[C@@H](O)[C@@H](O)[C@@H]2[C@@H]3C(=O)N(C(C)(C)C)C(=O)[C@H]3CC[C@H]12
17%	CC(C)SC(=N)N
-15%	O=C(Oc1cccc2cccnc12)c1ccccc1
-81%	C=C1C(=O)C23C(O)C1CCC2[C@]12COC3(O)C(O)C1C(C)(C)CC[C@H]2O (stereo partly specified)
23%	FC(F)(F)C(Cl)Br (stereo unspecified)
18%	COCC(=O)Nc1c(I)c(C(=O)NC[C@@H](O)CO)c(I)c(C(=O)N(C)C[C@@H](O)CO)c1I
23%	CO[C@@H]1COC(=O)[C@@H](CCSC)NC(=O)C/C=C\[C@@H](C)COC(=O)[C@H](C)NC(=O)C/C=C\[C@H]1C
-5%	CCCC(C)(C)C(=O)Nc1ccc(Cl)cc1
-17%	Cc1ccc(C2CC(=O)Oc3cc(C)c(Cl)c(C)c32)cc1 (stereo unspecified)
5.6µM*	c1cc2c(cc1C1CCCCC1)c1c3n2CCN[C@H]3CCC1
2%	CS(=O)(=O)OCC(O)C(O)COS(C)(=O)=O (stereo unspecified)
-6%	COc1ccc(-c2ccc(C(C)=O)cc2)cc1C1C2C=CCC(C)C2C(=O)N1Cc1ccccc1 (stereo unspecified)
23%	COC(=O)C/C=C\[C@@H](C)[C@@H](/C=N\OC[C@@H](O)COCc1ccco1)OC
5%	CO[C@H]1COC(=O)[C@@H](C)COC(=O)[C@@H](Cc2ccccc2)NC(=O)C/C=C\[C@H]1C
-2%&-6%	CCCCC/C=C\C/C=C\CCCCCCCCCC(=O)O
18%	Fc1ccc([C@H]2CCNCC2COc2ccc3c(c2)OCO3)cc1 (stereo partly specified)
7%	CN1CC(=O)N/C1=N/C(=O)Nc1cccc(Cl)c1

Structural class, the entries above containing a furan ring, fused or not.
Sfp PPTase inh	smiles
17%	CCC(C)C(=O)OC1C2CC3=C4CC(=O)OC(c5ccoc5)[C@]4(C)CCC3[C@@](C)(C2=O)C(CC(=O)OC)C1(C)C (stereo partly specified)
23%	COC(=O)C/C=C\[C@@H](C)[C@@H](/C=N\OC[C@@H](O)COCc1ccco1)OC

(cont.)
Sfp PPTase inh	smiles
18%	C/C=C/c1ccc(OC)cc1
11%	CS(=O)(=O)c1ccc([C@H](O)[C@H](CO)NC(=O)C(Cl)Cl)cc1
-4%&26%	C=C1CC[C@H](O)C/C1=C/C=C1\CCC[C@]2(C)[C@@H]([C@H](C)CC[C@@H](O)C(C)(C)O)CC[C@@H]12
6%	Cc1cccc(C2=N[C@@H](CC(C)C)CO2)c1
u	C=CCOC(=O)NC(c1ccc(F)c(F)c1)C(C(=O)CCl)C(=O)OC (stereo unspecified)
5%	CCOC(=O)N/N=C1/C[C@@H](O)[C@@H](O)[C@@H]2[C@@H]3C(=O)N(c4cccc(Oc5ccccc5)c4)C(=O)[C@H]3CC[C@@H]12
-10%	CCc1ccc2c(c1)N(C[C@H](C)CN(C)C)c1ccccc1S2
14%	COc1ccc(/C=C/N(CCc2ccc(OC)c(OC)c2)C(C)=O)cc1
14%	CC(C)=NOC[C@@H](O)[C@@H]1O[C@@H]2OC(C)(C)O[C@@H]2[C@H]1O
-29%	CCOc1ccccc1-c1nnc2n1N=C(c1cccc(OC)c1)CS2
4%	COc1ccc2c(c1)O[C@H](c1ccc3c(c1)OCO3)[C@@H](OC(=O)NCCOc1ccccc1)C2=O
13%	Cc1cc(O)c2c(c1)OC1(C)CCC3C(C)(C)CCCC34COC2C14 (stereo unspecified)
21%	C[C@@H]1C(=O)O[C@@H]1[C@@H](C)CO[Si](c1ccccc1)(c1ccccc1)C(C)(C)C
14%	CO[C@H]1COC(=O)C/C=C\[C@@H](C)[C@H](OC)COC(=O)CCC[C@@H]1C
7%	C=C[C@@]1(C)CC(=O)[C@]2(O)[C@@]3(C)[C@H](O)CCC(C)(C)[C@@H]3[C@H](O)[C@H](OC(C)=O)[C@@]2(C)O1
-4%	CC(=O)SC1CC2=CC(=O)CC[C@@]2(C)C2CC[C@@]3(C)[C@@H](CC[C@@]34CCC(=O)O4)C12 (stereo partly specified)
u	COc1ccc(OC)c(-c2nnc3n2N=C(c2ccccc2OC)CS3)c1
-6%	Cc1csc(CNc2ncnc3ccc(-c4c(C)noc4C)cc23)c1
-13%	COc1c(CC(=O)c2cc3c(cc2O)OC(C)(C)C(O)C3)ccc2c1C=CC(C)(C)O2 (stereo unspecified)
5%	Cc1cc2c(cc1Cl)C(c1ccc3c(c1)OCO3)CC(=O)O2 (stereo unspecified)
-22%	COc1ccc2cc1Oc1ccc(cc1)CC1c3cc(c(OC)cc3CCN1C)Oc1c(OC)c(OC)cc3c1C(C2)N(C)CC3 (stereo unspecified)
2%	O=C(O)[C@H]1CCCN(CCC=C(c2ccccc2)c2ccccc2)C1
-16%	c1ccc(Oc2nc(NC3CCCCC3)c3[nH]cnc3n2)cc1
6%&-25%&16%	CC#CCC1(C(=O)OC)C(=O)NC[C@H]1c1ccccc1 (stereo partly specified)

Individual results from the list.
C/C=C/c1ccc(OC)cc1 @ Sfp PPTase inh = 18%
O=c1cc(-c2ccc(O)cc2)oc2c(-c3cc(-c4cc(=O)c5c(O)cc(O)cc5o4)ccc3O)c(O)ccc12 @ Sfp PPTase inh = -11%
CC(C)C[C@H](NC(=O)[C@H](Cc1ccccc1)NC(=O)[C@@H]1CCCN1C(=O)[C@H](CC(=O)O)NC(=O)[C@@H]1CCC(=O)N1)C(=O)N[C@@H](CCCN=C(N)N)C(=O)N[C@@H](Cc1ccccc1)C(N)=O @ Sfp PPTase inh = 13%
COCCN(CCOC)c1nc(C)nc2c1nc(-c1ccccc1)n2CCCN1CCCCC1C (stereo unspecified) @ Sfp PPTase inh = 24%
COc1c(CC(=O)c2cc3c(cc2O)OC(C)(C)C(O)C3)ccc2c1C=CC(C)(C)O2 (stereo unspecified) @ Sfp PPTase inh = -13%
COCCOC(=O)C1=C(C)NC(C)=C(C(=O)OC/C=C/c2ccccc2)C1c1cccc([N+](=O)[O-])c1 (stereo unspecified) @ Sfp PPTase inh = 11%&20%

Not all compounds are listed; the hit share may differ from the screen's.
